High-throughput results: PubChem, several laboratories
PKD1 inh: inhibitors of human PKD1 kinase | AID 797 | PKD1 kinase fluorescence polarization assay | inhibition, %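 (about 10 µM by stock and volumes)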 | 0.056% of 200,000 active | Q15139;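 active = inhibition of 50% or more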;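 also: controls were vehicle for no effect and a reference inhibitor for full effect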
RGS16-Gao HTS: regulators of human RGS16-Galphao interaction; O15492+P09471; bead-based flow cytometry RGS16-Galphao binding, fluorescence; actives lie on both sides; binding response (% of control), % at 10 µM; 0.38% of 220,000 active;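 active = below 25% or above 175%, edge rows of some plates excepted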;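 also: Galphao activated by GDP with aluminum fluoride before binding; 100% = wells without compound and 0% = beads without RGS; some results beyond the cut were filed as inactive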
Target sequence (O15492 whole entry, looked up): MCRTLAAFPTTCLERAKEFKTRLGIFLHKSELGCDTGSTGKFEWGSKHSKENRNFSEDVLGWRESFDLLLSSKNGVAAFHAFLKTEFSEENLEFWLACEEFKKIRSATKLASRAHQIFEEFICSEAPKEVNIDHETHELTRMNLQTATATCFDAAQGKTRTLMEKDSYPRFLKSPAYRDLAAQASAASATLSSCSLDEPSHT
Target sequence (P09471 whole entry, looked up): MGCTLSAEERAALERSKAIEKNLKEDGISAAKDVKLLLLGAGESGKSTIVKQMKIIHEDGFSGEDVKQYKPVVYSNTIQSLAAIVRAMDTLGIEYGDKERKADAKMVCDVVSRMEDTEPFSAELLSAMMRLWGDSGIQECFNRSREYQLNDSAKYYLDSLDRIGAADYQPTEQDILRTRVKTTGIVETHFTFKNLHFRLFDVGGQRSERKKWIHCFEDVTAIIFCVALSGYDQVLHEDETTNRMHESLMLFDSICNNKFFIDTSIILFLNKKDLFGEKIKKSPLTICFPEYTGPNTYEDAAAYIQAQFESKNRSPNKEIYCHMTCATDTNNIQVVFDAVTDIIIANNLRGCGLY
GALR2 agonist: GALR2 (human) receptor agonism; O43603; GALR2-expressing cells, agonist activation read-out; activation, %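 (tested at 5 µM)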; 0.48% of 140,000 active; AID 803;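 active = above mean plus 3 SD of all compounds, about 5% in these data, not always enough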;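 also: 0% = vehicle buffer wells and 100% = reference agonist at full effect; tested in CHO reporter cells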
Target sequence (O43603 whole entry, looked up): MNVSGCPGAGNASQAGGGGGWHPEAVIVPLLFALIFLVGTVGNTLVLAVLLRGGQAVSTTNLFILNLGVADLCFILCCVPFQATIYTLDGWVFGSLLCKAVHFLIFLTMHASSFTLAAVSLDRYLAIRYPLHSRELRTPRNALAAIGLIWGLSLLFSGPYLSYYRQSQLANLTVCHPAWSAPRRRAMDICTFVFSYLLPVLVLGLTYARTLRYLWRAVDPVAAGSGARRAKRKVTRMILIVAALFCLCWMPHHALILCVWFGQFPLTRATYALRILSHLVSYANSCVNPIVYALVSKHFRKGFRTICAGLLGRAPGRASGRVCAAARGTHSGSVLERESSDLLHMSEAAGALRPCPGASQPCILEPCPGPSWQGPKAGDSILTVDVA
Insulin prom inh: TRM-6 insulin promoter activity inhibition. TRM-6 cells (human fetal islet line), insulin promoter-eGFP reporter, imaging; reporter expression induced with tamoxifen. inhibition, % at 2 µM. 0.9% of 130,000 active;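 active = inhibition above the mean plus 3 SD, with well images judged a real hit on visual review, cut at about 60% in these data, passing the limit was not always enough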
HSV replic up: increases HSV replication in cells | 0.005% of 220,000 active | maximum fold increase | HSV replication augmentation in cells, fold increase;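 active = peak rise of 1.5-fold or more in the series; tested in PC3 cells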;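 also: first round at 10 µM; read as green reporter fluorescence; hits show the peak of a series up to 25 µM; 1 = signal of infected wells without compound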
Insulin prom inh cell count: further read-out of Insulin prom inh, marked with its call; normalized cell count, %; measured here: cell count, toxicity; reference of the scale not given here;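 cells exposed to compound for 48 h; stained nuclei by imaging scaled within each plate; lower means fewer cells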
HSV replic up primary fold: further read-out of HSV replic up, marked with its call; fold increase; compound at 10 µM; measured here: primary screen fold increase 10 uM; tested in PC3 cells;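 GFP signal in the first replicate; 1 = infected wells without compound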
Starred values were filed as active, the others as inactive; i = inactive; . = no result given; [ ] = remark or other dose.

The first four compounds (preview)
SMILES	PKD1 inh	RGS16-Gao HTS	GALR2 agonist	Insulin prom inh	Insulin prom inh cell count	HSV replic up	HSV replic up primary fold
O=C(C1=C(O)C(=O)N(Cc2ccccc2)C1c1ccncc1)c1ccco1 (stereo unspecified)	-11.4	99.1	-0.7	-20.0	140.3	i	0.72
CC(C)CCN(C)C1CCN(C(=O)Nc2c(F)cccc2F)CC1	-4.0	106.2	-1.4	.	.	i	0.9
OC(CNCCNc1ncccc1C(F)(F)F)Cn1ccc2ccccc21 (stereo unspecified)	.	129.0	.	.	.	i	0.71
CC(=O)N1CCN(S(=O)(=O)c2ccc(C)cc2)C1C(C)C (stereo unspecified)	-9.3	102.9	-1.4	18.2	110.0	i	0.84

Results (from the top)
SMILES	PKD1 inh	RGS16-Gao HTS	GALR2 agonist	Insulin prom inh	Insulin prom inh cell count	HSV replic up	HSV replic up primary fold
O=C(C1=C(O)C(=O)N(Cc2ccccc2)C1c1ccncc1)c1ccco1 (stereo unspecified)	-11.4	99.1	-0.7	-20.0	140.3	i	0.72
CC(C)CCN(C)C1CCN(C(=O)Nc2c(F)cccc2F)CC1	-4.0	106.2	-1.4	.	.	i	0.9
OC(CNCCNc1ncccc1C(F)(F)F)Cn1ccc2ccccc21 (stereo unspecified)	.	129.0	.	.	.	i	0.71
CC(=O)N1CCN(S(=O)(=O)c2ccc(C)cc2)C1C(C)C (stereo unspecified)	-9.3	102.9	-1.4	18.2	110.0	i	0.84
Cc1ccccc1C(=O)NNC(=O)C(C)N1C(=O)c2ccccc2C1=O (stereo unspecified)	-2.4	101.7	-3.0	7.4	130.0	i	0.72
CCCc1[nH]nc2c1C(c1ccc(OC)c(CSC3=NCCS3)c1)C(C#N)=C(N)O2 (stereo unspecified)	-2.8	93.8	-2.1	-19.0	124.2	i	0.99
Cn1c(=O)c2cc(S(=O)(=O)NC(Cc3ccccc3)C(=O)NCc3ccco3)ccc2n(C)c1=O (stereo unspecified)	2.5	104.1	-4.3	.	.	i	0.92
CN(c1ccccc1)c1nc(N)c([N+](=O)[O-])c(N2CCCCC2)n1	.	103.3	.	.	.	i	0.94
COc1ccc(-c2cc(C(F)F)n3ncc(C(=O)N4CCc5ccccc5C4)c3n2)cc1	-1.0	102.0	.	-392.9	83.8	i	0.97
CCOc1ccc(S(=O)(=O)Nc2ccc3c(c2)OCO3)c2cccnc12	-7.7	90.2	1.6	43.8	65.6	i	1.01
Cc1ccccc1-n1c(C)nnc1SCC(=O)NC1CCCc2ccccc21 (stereo unspecified)	0.1	55.7	0.6	.	.	i	0.99
CC(C)NC(=O)C(Cc1ccccc1)N1C(=O)c2ccccc2C1=O (stereo unspecified)	-4.4	97.0	-2.1	-56.2	115.2	i	0.98
O=C(COC(=O)c1cnccn1)c1ccc2ccccc2c1	-1.9	100.6	0.2	-7.1	172.4	i	0.947
COc1ccc(N(CC(=O)NCc2ccc(C)cc2)S(=O)(=O)c2ccccc2[N+](=O)[O-])c(OC)c1	2.3	97.2	.	-53.3	51.1	i	0.93
C/C(=N/NC(=O)c1ccoc1C)c1ccc(NC(=O)c2ccncc2)cc1	-9.3	169.8	-0.3	0.0	90.7	i	0.98
O=S(=O)(c1ccc(Br)s1)N1CCC(Cc2ccccc2)CC1	-11.0	99.9	-0.4	-8.7	99.2	i	0.98
NC(=O)C1CCN(Cc2nc3cc(C(F)(F)F)ccc3c(=O)[nH]2)CC1	.	100.0	.	.	.	i	1
CC(C)(C)NC(=O)c1cccc(NC(=O)c2ccco2)c1	3.1	79.7	-1.8	-66.7	110.4	i	0.86
COC(=O)C/C=C/[C@@H](C)[C@@H](/C=N/OCC[C@@H]1C=C[C@H](OC(C)=O)[C@@H](COC(C)=O)O1)NS(=O)(=O)c1ccc(C)cc1	-2.4	48.9	-1.9	23.8	89.8	.	.
COc1ccc(OC)c2sc(N(CCN(C)C)C(=O)c3cc(Cl)sc3Cl)nc12	-5.9	100.3	.	-283.3	37.2	i	1.03
Cc1ccc(Cn2nnc3c(=O)[nH]c(C4CCCN(C(=O)Nc5ccc(F)cc5)C4)nc32)cc1 (stereo unspecified)	-1.9	95.3	-0.9	21.4	70.1	i	0.87
COc1cc(OC)c2c(-c3ccccc3)cc(=O)oc2c1C(CCN1CCCC(C)C1)c1ccc(N(C)C)cc1 (stereo unspecified)	.	104.3	.	.	.	i	0.68
Cn1c(CSc2nc3ccccc3s2)nc2ccccc21	-3.1	96.8	-0.3	.	.	i	0.83
Nc1nc(N2C(=O)C3CC=CCC3C2=O)nn1-c1ccccc1 (stereo unspecified)	3.9	92.7	-0.7	-2.5	118.2	i	1.03
CCN1C(=O)c2ccccc2S(=O)c2ccc(C(=O)N3CCOCC3)cc21 (stereo unspecified)	.	96.2	.	.	.	i	0.99
(next part)
SMILES	PKD1 inh	RGS16-Gao HTS	GALR2 agonist	Insulin prom inh	Insulin prom inh cell count	HSV replic up	HSV replic up primary fold
CCn1c(NCc2ccccn2)nc2c1c(=O)n(C)c(=O)n2C	3.6	102.6	-0.5	-31.8	115.2	i	1
COc1ccc(C(=O)CSc2n[nH]c(-c3ccncc3)n2)cc1[N+](=O)[O-]	-2.6	105.7	-0.1	-22.2	141.7	i	0.91
O=C(NC1CCCCC1)N(Cc1ccccc1)Cc1ccco1	-3.4	101.9	0.3	-52.6	127.8	i	1.02
COc1cccc(C(C(=O)NC(C)(C)C)N(CC(C)C)C(=O)CCC(=O)Nc2cc(C)on2)c1OC (stereo unspecified)	-0.5	112.3	.	.	.	i	0.95
CCCCN(CCCC)S(=O)(=O)c1ccc2oc(C(=O)N3CCOCC3)c(C)c2c1	-2.9	87.3	0.3	.	.	i	1.15
O=C(NCC(c1cccs1)N1CCOCC1)c1cc2ccccc2o1 (stereo unspecified)	6.5	174.7	-1.8	.	.	i	1
CCOC(=O)c1cc2c(ccn2-c2ccc(F)cc2)n1CC(=O)N(CC)CC	-2.9	104.9	.	.	.	i	0.99
O=C(Nc1ccc2c(c1)OCCO2)c1cccc2nc3ccccc3nc12	17.2	96.9	-1.4	3.3	90.6	i	1.03
CCNc1nnc(CCn2nc(C)c(Br)c2C)s1	-2.8	104.1	.	.	.	i	0.98
COc1ccc(CCNC(=O)/C=C/c2cc(OC)c(OC)c(OC)c2)cc1OC	-3.2	98.7	.	.	.	i	1.04
N#C/C(=C\c1ccc(N2CCOCC2)o1)c1ccccc1	-7.6	67.9	-3.5	.	.	i	0.99
S=c1[nH]nc(-c2ccncc2)n1/N=C/c1cccc(Cl)c1	.	101.3	.	.	.	i	0.89
Cc1ccc(C(=O)Nc2ccc3c4c(cccc24)CC3)cc1[N+](=O)[O-]	9.2	102.5	-1.0	.	.	i	1.12
Cc1cccc(OCCCSc2nc3ccccc3[nH]2)c1	-11.4	102.9	-3.1	.	.	i	1.11
Cc1c(OCc2ccccc2)c(=O)ccn1Cc1ccccc1	-10.7	101.4	-0.1	-3.0	83.2	i	0.953
CCSc1nnc(NC(=O)CSc2nc3c(c(=O)n2CC)SC(C)C3)s1 (stereo unspecified)	-7.5	94.4	0.4	54.5	165.3	.	.
c1ccc(-c2ccc(SCc3cccnc3)nn2)nc1	1.7	99.8	.	-6.7	90.3	i	0.65
COC(=O)c1ccc(Cl)c(NC(C)=O)c1	-6.4	89.2	-2.0	-40.0	114.1	i	1.03
COc1cc(NS(=O)(=O)c2ccc(NC(=O)c3ccco3)cc2)nc(OC)n1	-5.9	102.6	-2.0	-4.5	123.0	i	1
Cc1[nH]n(-c2ccccc2)c(=O)c1Sc1ccc(Cl)cc1	-11.0	101.8	-1.6	10.8	160.2	i	0.87
COc1ccc(C(=O)Nc2nc(-c3ccc(OC)cc3)c(-c3ccc([N+](=O)[O-])cc3)s2)cc1	2.1	100.4	-2.1	-75.0	97.3	i	1.31
Cc1ccc(S(=O)(=O)NC(CC(=O)O)c2ccccc2)cc1 (stereo unspecified)	-9.7	96.8	0.4	-13.2	102.1	i	0.93
O=C(CN(Cc1cccs1)C(=O)CNC(=O)c1ccco1)NC1CCCCC1	2.9	110.4	-0.4	.	.	i	1.02
Cc1ccc(N2C(=O)CCC2(C(N)=O)c2ccccc2)cc1 (stereo unspecified)	0.9	102.3	.	10.0	84.8	i	1.08
CCC(=O)Nc1ccc(/C(C)=N\NS(=O)(=O)c2ccc(C)cc2)cc1	0.5	100.0	-2.2	.	.	i	0.88
(cont.)
SMILES	PKD1 inh	RGS16-Gao HTS	GALR2 agonist	Insulin prom inh	Insulin prom inh cell count	HSV replic up	HSV replic up primary fold
O=C(O)CC1=C(Nc2ccccc2)C(=O)N(c2ccccc2)C1c1ccc(F)cc1 (stereo unspecified)	8.7	92.6	-1.4	28.6	88.2	i	0.99
Cc1ccccc1CN1CCc2c(OCC(=O)N3CCCc4ccccc43)cccc2C1=O	-5.2	26.0	1.4	-128.0	53.2	i	0.75
Cc1cc(C)n2ncc(S(=O)(=O)c3ccccc3)c2n1	-2.2	97.1	.	.	.	i	1
O=C(Nc1ccccc1C(F)(F)F)N1CCC(n2c(=O)[nH]c3ccccc32)CC1	-2.4	111.8	-1.8	-35.1	95.9	i	0.92
CCN1C2=C(C(=O)CCC2)C(c2ccc(O)c(Br)c2)C2=C1CCCC2=O	4.0	95.8	0.8	-21.9	95.5	i	0.74
CCOc1ncccc1C(=O)OC(C)C(=O)NC(=O)NC1CCCCC1 (stereo unspecified)	-0.4	88.5	.	.	.	i	0.98
COc1ccc(-n2c(N)c(C(=O)Nc3c(C)n(C)n(-c4ccccc4)c3=O)c3nc4ccccc4nc32)cc1	.	288.0*[activator]	.	.	.	i	0.92
Cc1cccc(NC(=O)/C(=C\c2ccc([N+](=O)[O-])o2)NC(=O)c2ccc(Cl)cc2)c1	5.5	100.6	-0.9	14.7	124.6	i	1.2
C/C(=N/NC(=O)CC(=O)N/N=C(\C)c1ccc([N+](=O)[O-])cc1)c1ccc([N+](=O)[O-])cc1	.	100.2	.	.	.	i	0.92
COc1cccc(CNC(=O)c2ccccc2N)c1	-8.1	92.1	-0.3	46.7	123.5	i	0.91
Cc1ccc(NC(=O)CCCC(=O)O)c(Br)c1	-16.1	103.0	-0.9	.	.	i	0.96
Cc1cc(C)n2nc(CC(=O)NC3CCCCCC3)nc2n1	-15.5	93.2	-0.8	.	.	i	1.01
C/C(CC(=O)N1CCN(C=O)CC1)=N\NC(=O)c1cc2ccccc2cc1O	-10.7	99.0	-0.9	13.5	78.9	i	1.01
CC1Cc2ccccc2N1C(=O)CSc1nc(N)cc(=O)[nH]1 (stereo unspecified)	-4.3	97.0	-2.8	.	.	i	0.99
CCc1ccc(NC(=S)N(Cc2cccc(Br)c2)CC2CCC(C(=O)O)CC2)cc1 (stereo unspecified)	-3.4	81.7	.	.	.	i	1.05
Cc1ccc(/C=C2\NC(=S)NC2=O)cc1[N+](=O)[O-]	2.8	101.9	.	.	.	i	0.97
CCN(Cc1ccncc1)C(=O)c1ccccc1NS(=O)(=O)c1ccc(F)cc1	0.8	97.2	.	50.0	90.1	i	0.91
O=C(CCN1CCCCCC1)c1ccccc1	-8.7	99.7	-1.6	-13.5	114.9	i	1.04
CC(C)[C@@H]1CC[C@@H](C)c2c(-c3ccccc3)n[nH]c21	-8.2	101.2	-1.0	.	.	i	0.763
CCOc1ccccc1NC(=O)C(OC(=O)c1ccccc1O)c1ccccc1 (stereo unspecified)	-9.6	79.4	0.3	-50.0	139.2	i	0.94
CCCOC(=O)c1ccc(NC(=O)CCOc2ccccc2)cc1	-11.3	106.5	-1.7	-32.2	77.6	i	0.97
O=C(O)CSc1cc(C(=O)c2ccccc2O)cn2c(=O)c3c4c(sc3nc12)CCCC4	.	102.3	.	.	.	i	0.96
O=C1CC(/C=C/c2ccccn2)=Nc2ccccc2N1	5.2	92.5	.	14.3	102.5	.	.
COc1cc(/C=C/c2c([N+](=O)[O-])c(=O)n(C)c(=O)n2C)cc(OC)c1OC	-1.1	112.2	-1.9	9.7	100.0	i	0.86
Cc1nnc(SCC(=O)NC(C)(C)C)n1NCc1c(F)cccc1Cl	-2.4	98.2	.	.	.	i	1.02
COc1ccc(OC)c(/C=N/NC(=O)c2ccc(Cn3cc([N+](=O)[O-])cn3)o2)c1	-14.2	99.1	0.0	6.7	63.2	i	0.94
CCC1CCCCN1C(=O)CSc1nc(C)cc(C)n1 (stereo unspecified)	-10.3	99.7	.	.	.	i	0.91

Compound profiles (already shown). Order of screens: PKD1 inh, RGS16-Gao HTS, GALR2 agonist, Insulin prom inh, Insulin prom inh cell count, HSV replic up, HSV replic up primary fold
O=C(O)CC1=C(Nc2ccccc2)C(=O)N(c2ccccc2)C1c1ccc(F)cc1 (stereo unspecified) is listed with 8.7, 92.6, -1.4, 28.6, 88.2, i, 0.99
CCOc1ccccc1NC(=O)C(OC(=O)c1ccccc1O)c1ccccc1 (stereo unspecified) is listed with -9.6, 79.4, 0.3, -50.0, 139.2, i, 0.94
